Screening results deposited in PubChem BioAssay by ICCB-Longwood Screening Facility, Harvard Medical School.
BasE inh = BasE siderophore biosynthesis inhibition. purified BasE, fluorescence polarization binding displacement. inhibition, % (test concentration not listed). 0.1% of 84,000 active;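 active means both replicates above 25% with normal brightness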;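 further: 0% = negative plate control signal and 100% = positive plate control signal; stock transfer was 100 nL into about 30 µL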
KSHV LANA nucl = inhibitors of KSHV LANA binding to nucleosomes | FITC-LANA1-23 / chicken nucleosome fluorescence polarization; stronger effect = lower value | z-score (concentration not given with the values) | 0.3% of 51,000 active;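 active means both repeat wells score below -2 in polarization z-score versus plate sample wells, excluding overly bright wells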;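 further: 100 nL library stock added to about 30 µL; numbers are from one replicate; some results filed as inactive read as strong as hits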
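Material: Purified chicken nucleosomes with FITC-labelled LANA N-terminal peptide (1-23) | Reagent: 50 nM FITC-LANA1-23 probe | Medium: TEN-BT buffer, pH 7.5 | Times: 10–45 min incubation at room temperature | Detection: Fluorescence polarization | Replication: Duplicates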
Active calls of the source: *; x = no result given; & = joins results of further samples.

The first 5 records, to show the layout:
SMILES	BasE inh	KSHV LANA nucl
NNC(=O)CCN1CCN(Cc2ccccc2)CC1	2.0	x
O=C(CC12CC3CC(CC(C3)C1)C2)OCC(O)CN1CCOCC1 (configuration not stated)	0.8	x
CCNC(=O)Nc1ccccc1C(=O)OC	0.5	1.06
CCOC(=O)c1ccc(-n2c(=S)[nH]c3ccccc32)cc1	-0.1	x
c1coc(CNCC2CCCO2)c1 (configuration not stated)	0.1	0.196

The whole of this part (from the top)
SMILES	BasE inh	KSHV LANA nucl
NNC(=O)CCN1CCN(Cc2ccccc2)CC1	2.0	x
O=C(CC12CC3CC(CC(C3)C1)C2)OCC(O)CN1CCOCC1 (configuration not stated)	0.8	x
CCNC(=O)Nc1ccccc1C(=O)OC	0.5	1.06
CCOC(=O)c1ccc(-n2c(=S)[nH]c3ccccc32)cc1	-0.1	x
c1coc(CNCC2CCCO2)c1 (configuration not stated)	0.1	0.196
CCn1cc(C(=O)N2CCCc3ccccc32)c(=O)c2ccc(C)nc21	-0.1	x
O=C(O)c1cc(C2CC2)on1	2.8	0.62
CC1CSC(N(C(=O)CN2CSCC2=O)c2ccc(Cl)cc2)=N1 (configuration not stated)	-1.7	x
N#Cc1c(=N)nc2oc3ccc(Cl)cc3c3c(C#N)c(N)[nH]c1c23	1.4	0.0285
O=C1N/C(=N\O)S/C1=C/c1cccnc1	4.6	-0.678
CCN(Cc1ccncc1)S(=O)(=O)c1ccc(Cl)cc1	3.6	-0.058
O=C1N(c2ccc3c(c2)OCO3)C(c2ccc(F)cc2)C1(F)F (configuration not stated)	0.8	x
CCOC(=O)c1nc(N)c(=O)n(-c2ccc(Cl)cc2)n1	1.3	x
N#CC(C#N)=Cc1cn(CC(=O)Nc2ccccc2)c2ccccc12	-3.0	1.4
CN(C(=O)COC(=O)c1cccs1)C1CCS(=O)(=O)C1 (configuration not stated)	-0.5	x
CCCCn1c(CCCNC(=O)c2ccco2)nc2ccccc21	-2.6	-0.116
O=C(NCC1CCCO1)c1c[nH]c2ccccc2c1=O (configuration not stated)	-1.0	-0.459
CN1C(=O)C(=Cc2cccn2-c2ccccc2)C(=O)N(C)C1=O	-0.2	0.114
CCCn1c(C(F)(F)F)nc2ccccc21	0.1	x
COCCNC(=S)N1CCCN(c2nc3cc(C)ccc3cc2C#N)CC1	-3.2	2.73
CCOC(=O)c1sc(=NC(=O)c2ccc(S(=O)(=O)N3CCCCC3)cc2)n(C)c1C	2.4	-0.549
CC(Sc1nncn1C)C(=O)Nc1ccc(C#N)cc1 (configuration not stated)	3.0	x
C=CCn1c(O)c2ccc(C(=O)N=C3N=c4ccccc4=N3)cc2c1O	0.1	x
COc1ccnc(Oc2cccc(C(F)(F)F)c2)c1C#N	x	-0.708
O=c1c(/C=N/N2CCOCC2)c(-c2ccccc2)[nH]n1-c1nc2ccccc2s1	3.0	-0.531
CCCCn1nnnc1CSc1nnc(-c2cc(OC)c(OC)c(OC)c2)n1-c1ccccc1F	-4.4	x
O=C(CSc1nnc2ccccn12)NCc1cccs1	-1.9	x
N#C/C=C/N1CCC(Cc2ccccc2)CC1	4.5	x
Nc1n[nH]c(CCc2ccccc2)n1	2.1	0.652
CCN(C#N)c1nc(C)cc(OC)n1	0.1	-0.427
CC(C)(C)n1nnnc1C(c1ccccn1)N1CCN(c2cccc(C(F)(F)F)c2)CC1 (configuration not stated)	0.9	-0.254
CCOc1cc(/C=C2\Sc3ccccc3C2=O)cc(I)c1O	-13.0	x
O=C(O)Cc1csc(N2CCCC2=O)n1	-0.9	x
O=S(=O)(Cc1noc(-c2cc(Cl)cc(Cl)c2)n1)c1ccc(Cl)cc1	-1.5	-0.701
COc1ccc(C2=C(N3CCC(C(N)=O)(N4CCCCC4)CC3)c3ccccc3C2=O)cc1	1.5	0.458
CCCC(Nc1ncnc2ccccc12)C(=O)O (configuration not stated)	0.1	-0.6
CCc1nc(NC2CCCCC2)c(C#N)c2c1CCCC2	-0.9	1.59
CCOC(=O)c1cc(S(=O)(=O)NCCc2ccccc2)cn1C	-1.5	-0.407
Cc1cc(C)n2nc(C(=O)N/N=C/c3ccncc3)nc2n1	0.7	-0.724
FC(F)(F)c1cccc(Sc2cnc3ccccc3n2)c1	x	1.11
Cn1c(=O)[nH]c(=O)c2c1nc(NNC=O)n2Cc1ccc(Cl)cc1	-1.2	0.525
NC(=O)c1cnn(C2CCS(=O)(=O)C2)c1 (configuration not stated)	x	0.467
CN1CCN(C(=O)c2ccccc2NC(=O)c2ccc(Cl)cc2)CC1	0.3	0.651
CCc1c(C)c(C#N)c2nc3ccccc3n2c1NCc1ccco1	0.3	0.564
CN(C)c1cccc(C(=O)N/N=C2\CCSc3ccc(F)cc32)c1	0.7	x
O=C(O)C12CC3CC(C1)CC(C(=O)O)(C3)C2	1.0	-0.714
Nc1n[nH]c(C2CCCCC2)n1	0.3	-0.0185
COC(=O)CC1SC(=O)N(c2ccc(C)cc2)C1=O (configuration not stated)	-0.9	0.348
COC(=O)c1ccc(NC(=O)c2ccn[nH]2)cc1	-1.0	-0.978
CCOC(=O)[C@@H]1Nc2ccc(C(=O)O)cc2[C@@H]2C=CC[C@H]12	11.6	x
CCOc1ccc(S(=O)(=O)NCc2ccccc2)cc1-c1nc2c(C(C)(C)C)nn(C)c2c(=O)[nH]1	0.8	x
COc1ccc(-c2noc(-c3cc4c(COC(C)=O)cnc(C)c4oc3=O)n2)cc1	-8.7	2.8
Cc1cc2cc(CNc3ccc(N4CCCC(O)C4)cc3)c(=O)[nH]c2cc1C (configuration not stated)	2.0	1.32
O=C1/C(=C/c2ccccc2OC(F)F)CS(=O)(=O)c2ccc(F)cc21	2.7	x
COCC(=O)Oc1c(Sc2c(F)c(F)c(F)c(F)c2F)c(C)nn1C(C)(C)C	1.1	0.451
CSc1ncc(C(=O)NCCCN2CCc3ccccc3C2)c(C)n1	-5.9	2.15
O=c1cc(CSc2nnnn2-c2ccccc2)[nH]c2nc3ccccc3n12	0.5	-0.78
Clc1ccc(OCc2nn[nH]n2)cc1	1.9	-0.202
CCOC(=O)c1sc(SC)c2c1CCc1conc1-2	0.7	x
COC(=O)C(Cc1ccc(O)cc1)NC(=O)c1ccc(OC)c(OC)c1 (configuration not stated)	-1.3	0.78
Continuation:
SMILES	BasE inh	KSHV LANA nucl
CC(=O)N1C(=N)S/C(=C/c2cc3ccccc3nc2Sc2ccccc2)C1=O	-0.8	x
Nc1ccc(S(=O)(=O)CCSS(=O)(=O)c2ccc(N)cc2)cc1	0.8	x
COCc1cc(C)nc2sc(C(=O)N(C)c3ccccc3)c(-n3cccc3)c12	x	0.533
Cc1cc(N2CCN(c3cccc(C)c3C)CC2)nc(-c2ccccc2)n1	0.2	0.059
CC(C)NC(=O)C1CCCCC1C(=O)O (configuration not stated)	-0.5	-0.516
CCCNC(=O)N1CCC(C(=O)c2cccc(F)c2)CC1	1.2	0.298
Cc1ccc(CNC(=O)c2ccc(N3CCSc4ncccc43)s2)o1	1.3	0.352
Cc1csc(C(C#N)C(=O)CSc2ccc3c(c2)OCCO3)n1 (configuration not stated)	-0.9	x
COC(=O)NCc1cc(OC)c(OC)c(OC)c1	3.3	-0.99
CCCCCCCc1c(O)nc(SCCN2CCOCC2)n(-c2ccccc2)c1=O	-1.4	1.89
CC12CCC(=O)N1C(C(=O)Nc1nccs1)CS2 (configuration not stated)	-0.7	x
Cc1nnc(SCC(=O)NCCN2CCOCC2)c2nn(-c3ccccc3)c(C)c12	-1.0	x

Complete entries as entered above. Values in the order: BasE inh, KSHV LANA nucl
CCCNC(=O)N1CCC(C(=O)c2cccc(F)c2)CC1 in the list: 1.2, 0.298
Nc1ccc(S(=O)(=O)CCSS(=O)(=O)c2ccc(N)cc2)cc1 in the list: 0.8, x
Cc1ccc(CNC(=O)c2ccc(N3CCSc4ncccc43)s2)o1 in the list: 1.3, 0.352
Cc1csc(C(C#N)C(=O)CSc2ccc3c(c2)OCCO3)n1 (configuration not stated) in the list: -0.9, x
COCc1cc(C)nc2sc(C(=O)N(C)c3ccccc3)c(-n3cccc3)c12 in the list: x, 0.533

The list continues.
SMILES	BasE inh	KSHV LANA nucl
O=C(c1cccc(C(F)(F)F)c1)N1CCCCC1	1.1	1.83
CCOC(=O)c1nc(C)n(-c2cc(Cl)cc(Cl)c2)n1	x	-1.24
CCCCn1c(CCCNC=O)nc2ccccc21	0.2	0.644
O=C(O)c1cccc(NC(=S)N/N=C/c2cccc(O)c2)c1	10.0	-0.526
COCCN(Cc1cc2cc(C)c(C)cc2nc1Cl)C(C)=O	2.6	0.528
S=C(NCC1CCCO1)N/N=C/c1cccnc1 (configuration not stated)	1.6	-0.253
c1csc(-c2nnc(N3CCCCCC3)c3ccccc23)c1	0.0	x
Cc1cnc(C(=O)OCc2c(C)cc(C(C)(C)C)cc2C)cn1	-2.2	x
O=C1CN(c2ccc(S(=O)(=O)N3CCCC3)cn2)CCN1	2.0	x
CC(C)CNc1ncnc2c1oc1ccccc12	0.2	x
O=C(C1CCN(S(=O)(=O)c2cc(C(F)(F)F)ccc2Cl)CC1)N1CCN(C(=O)C2CCCO2)CC1 (configuration not stated)	0.9	x
CCOC(=O)/C=C(\C)Nc1nc2ccccc2s1	0.7	0.328
NNC(=O)c1n[nH]c2c1CCC2	0.3	-0.484
Cc1oc2ncn3nc(C(C)Oc4cccc5ccccc45)nc3c2c1C (configuration not stated)	0.0	-0.534
CC(=O)N1C(=O)NC(=O)C1(C)C	-0.3	-0.708
Cc1csc(C(C#N)C(=O)CSc2nc3ccccc3o2)n1 (configuration not stated)	3.0	x
COc1cccc(Cn2c(=O)n3nc(CCn4nc(C)cc4C)nc3c3ccccc32)c1	-1.2	0.009
Oc1ccccc1C=Nc1ccc(OC(F)(F)F)cc1	1.7	x
COc1cccc(-c2nc3ccccc3s2)c1	-0.1	0.265
CC12CC3CC(C)(C1)CC(CO)(C3)C2	-0.5	x
O=S1(=O)CCC(NNC(=S)Nc2ccccc2)C1 (configuration not stated)	0.1	0.347
Cc1cc(C)c(S(=O)(=O)N2CCN(Cc3ccc4c(c3)OCO4)CC2)c(C)c1	-0.5	x
CCN(C(=O)COc1cc(=O)n(CC)c2ccccc12)c1cccc(Cl)c1	-2.7	-0.421
CC(N)C(=O)OC(C)(C)Cc1ccc(Cl)cc1 (configuration not stated)	2.9	0.116
CN1CCN(c2ccc(CNC(=O)c3ccc4c(c3)OCCO4)cc2)CC1	0.1	x
O=C(/C=C/c1ccc(Br)o1)N(Cc1nc2ccccc2c(=O)[nH]1)CC1CCCO1 (configuration not stated)	2.2	x
O=S(=O)(Nc1ccccc1N1CCOCC1)c1ccc(-c2ccccn2)s1	0.1	x
CC(C)CCNC(=O)Oc1ccccc1	0.7	x
CCCCc1ccc(NC(=O)Nc2ccc(N3CCCCC3)cc2)cc1	0.4	x
Cc1c(CN2CCN(c3cccc(C(F)(F)F)c3)CC2)c(=O)n(-c2ccccc2)n1C	0.1	x
Cc1nn(-c2ccccc2)c(Cl)c1/C=N/NC(=O)c1cccnc1	-1.1	-0.175
NC(=O)c1ccsc1NC(=O)COC(=O)c1ccccc1	39.7*	x
CCN(CC)C(=O)N1CCN(CCC#N)CC1	1.3	x
Cc1ccc(S(=O)(=O)NCC2CCC(C(=O)NCc3cccnc3)CC2)cc1 (configuration not stated)	1.5	0.651
CCC(C)NC(=O)c1cc(-c2cccs2)nc2c1c(C)nn2-c1ccccc1 (configuration not stated)	0.7	x
COC(=O)CNS(=O)(=O)c1ccc(C)cc1	1.0	0.252
CN(C)C(=O)CSc1nnc2n1C(C)(C)Cc1ccccc1-2	-0.1	1.13
Cc1cccn2cc(-c3ccccc3)nc12	-1.4	0.167
NC(N)=N/N=C1\CCc2ccccc21	-3.4	-0.472
CC(C)(C)OC(=O)NC1CCN(C(=O)CSCC(=O)O)CC1	1.6	x
COc1ccc2c(c1OC)C(=O)O[C@H]2[C@H]1c2c(cc3c(c2OC)OCO3)CCN1C	-1.6	-0.807&1.11
COc1ccc2c(COc3cccc(F)c3)cc(=O)oc2c1	-1.3	x
CN(Cc1ccc(C(C)(C)C)cc1)C(=O)c1ccc(N(C)C)cc1	-0.8	x
NC(=O)C1CCN(c2ncnc3nc[nH]c23)CC1	-0.1	x
Nc1ncnc2c1ncn2[C@@H]1O[C@H](CO)[C@H](O)C1O (some centres not stated)	-0.4	-0.584
CCCCn1nnnc1COC(=O)CCc1c[nH]c2ccccc12	1.1	x
COc1ccc(C(=O)/C=C2/NCC(C)NC2=O)cc1 (configuration not stated)	0.0	0.0725
COc1ccc(-c2nc3ccccn3c2Nc2ccc3c(c2)OCO3)cc1	4.8	-1.07
CC(=O)[C@H]1CC[C@H]2[C@@H]3C=CC4=CC(=O)CC[C@@]4(C)[C@@H]3CC[C@]12C	1.4	0.967
O=C(OCc1nccn1Cc1ccc(Cl)cc1)c1ccccc1Cl	-0.9	x
CCOC(=O)c1oc2ccc(S(=O)(=O)Nc3ccc4[nH]c(=O)[nH]c4c3)cc2c1C	0.4	0.214
Cc1nn(Cc2ccccc2Cl)c(C)c1C(=O)NC1=NCCS1	0.0	x
Cc1ccc(S(=O)(=O)C(C)C(=O)c2ccc3c(c2)OCCO3)cc1 (configuration not stated)	-2.3	1.76

Some of the compounds tested; count on the stated rates, not on these rows.
